Source: PubChem BioAssay
HTT prom inh – inhibits huntingtin promoter activity; Potency, µM (highest dose often 57.5 µM), inactives show at the highest dose activity change, negative = inhibition, usual class: inhibitors; hit rate 0.93% among 48,000; HEK293 HTT promoter firefly luciferase reporter (activity 0% = vehicle and -100% = no light), 24 h; AID 1508623; active means well fitted inhibition curve with a large enough effect; inconclusive means small, poorly fitted or top-dose-only effect; inactive means no such curve, though single readings can be large or run the other way; further: nearly all actives have a fitted effect of over 50% in size
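Luminescence was read after Dual-Glo reagent and a 10 min room-temperature incubation. Values were normalized to vehicle (0% activity) and zero RLU (-100% activity). Reporter HEK293 cells had been exposed to compounds (up to 57.5 uM final) for 24 h.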
PMP22 txn – PMP22 gene transcription modulation. Potency, µM (titrated, usually from 57.5 µM), inactives show at the top dose activity change, negative = inhibition, usual class: inhibitors. hit rate 2% among 43,000. AID 1508649. S16 Pmp22-F2sN Schwann cells (luciferase reporters placed in the Pmp22 gene), FLuc/NLuc coincidence luminescence, 24 h; active = clear falling dose curves in both reporters; inconclusive = both reporters move, but less clearly or upward; inactive = either reporter flat; the % is the NLuc reporter signal; further: on the % scale 0 is the no-effect control and ±100 the full control effect; some results filed as inactive show a strong effect at the top dose
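Reporter cells (S16 Pmp22-F2sN, 500–1,000 per well) exposed to compounds for 24 h, 37C, 5% CO2; lysis with FLuc read after 10 min, then Stop&Glo and NLuc read after 10 min.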
Starred values were filed as active, the others as inactive; ? = inconclusive; / = no result given; [ ] = another dose, or the depositor's remark. Potency means the concentration at half of the fitted maximal effect.

SMILES	HTT prom inh	PMP22 txn
CCOc1ccc(Nc2oc(/C=C/c3cccc(OC)c3)nc2C#N)cc1	-5%	-2%
CC(C)(C)c1ccc(-c2nc(SCC(=O)Nc3ccc(Cl)cc3)[nH]c(=O)c2C#N)cc1	-15%	?
CCOC(=O)N1CCN(C(=O)c2ccc3c(c2)N(Cc2ccccc2F)C(=O)c2ccccc2S3=O)CC1 (stereo unspecified)	-16%	-4%
Cc1ccc(CC(=O)Nc2ccc3c(c2)N(C)C(=O)c2ccccc2S3)cc1	-28%	-17%
O=c1cc(CSc2ccccc2)[nH]c2ccc(F)cc12	?	-47%
Cc1ccc(C(=O)Nc2nnc(S(=O)(=O)N(C)Cc3ccco3)s2)cc1	66%[activator]	-1%
O=S(=O)(c1ccc(Br)cc1)c1nnn2c1nc(NC1CCCCCC1)c1sccc12	-7%	?
CCc1ccc(OCC(=O)Nc2c(C(=O)c3ccc(Br)cc3)oc3ccccc23)cc1	-5%	-19%
CCc1ccc(-n2c(SCC(=O)NC(C)CC)nc3n[nH]c(C)c3c2=N)cc1 (stereo unspecified)	?	-28%
Cc1cccc(OCc2ccc(-c3nc(C#N)c(N4CCC(C(N)=O)CC4)o3)o2)c1	-6%	4%
O=C(Cn1c(SCc2ccc(F)cc2)nc2cccnc21)Nc1ccccc1F	2%	?
Cc1cccc(NC(=O)CC2Nc3cccc4cccc(c34)NC2=O)c1 (stereo unspecified)	-9%	?
Cc1cc(C)cc(N2C(=O)CSC23C(=O)N(CC(=O)Nc2ccc(F)cc2F)c2ccccc23)c1 (stereo unspecified)	-22%	5%
Cc1cc(C)c(S(=O)(=O)NCCc2cc3ccc(C)c(C)c3[nH]c2=O)c(C)c1	-11%	-26%
CCc1ccc(NC(=O)C2CCN(C(=O)N3CC(CC)Oc4ccccc43)CC2)cc1 (stereo unspecified)	?	?
CCN(CC)S(=O)(=O)c1ccc(OC)c(NC(=O)c2sc3ccccc3c2Cl)c1	-15%	?
Cc1cccc(NC(=O)COc2ccc(-c3nn(C)c(=O)c4ccccc34)cc2)c1	-30%	?
Cc1ccc(N2C(=O)CS(=O)(=O)C23C(=O)Nc2ccccc23)cc1C (stereo unspecified)	-10%	12%
O=c1c(-c2cc(-c3ccccc3)nc3c2COc2ccc(Cl)cc2-3)coc2ccccc12	-6%	6%
Cc1ccccc1NC(=O)Cn1c(=O)n(Cc2ccc3c(c2)OCO3)c(=O)c2ccc(C(=O)NC3CCCCC3)cc21	-10%	11µM*
CCn1c(=O)c2cc(C(=O)NC3CCC(C)CC3)sc2c2ccccc21 (stereo unspecified)	-10%	17µM*
COc1ccc(-c2noc(-c3ccc(NCc4cccnc4)c([N+](=O)[O-])c3)n2)cc1	-3%	-30%
O=C(NCc1ccc2c(c1)CCN2C(=O)c1ccncc1)c1cccc(Cl)c1	-4%	-18%
CCN(C(=O)CSc1nc2ccccc2n1Cc1ccc(F)cc1Cl)c1ccccc1	?	-25%
COC(=O)c1ccccc1NC(=O)C1=CC(c2cccs2)=NS(=O)(=O)N1C	-21%	9%

Other records follow:
SMILES	HTT prom inh	PMP22 txn
CCOC(=O)c1ccc(NC(=O)c2ccc3c(c2)c(C)c(C)n3Cc2ccc(F)cc2)cc1	?	-14%
COc1ccccc1OCCCn1c(C2CC(=O)N(c3ccc(F)cc3)C2)nc2ccccc21 (stereo unspecified)	-27%	?
CC(C)C(=O)c1c(C(C)C)nn2ccccc12	14%	/
CCNc1cc(NC2CCC(O)CC2)nc(Nc2ccc3c(ccn3Cc3ccccc3)c2)n1 (stereo unspecified)	-20%	/
O=C(Nc1ccc(F)cc1F)c1cc(S(=O)(=O)N2CCCCC2)c[nH]1	-25%	?
CCN(CC)CCOC(=O)c1ccc(NC(=O)CSc2cc(=O)n(CC)c3ccccc23)cc1	9%	?
Cc1cc(=O)[nH]c2nnc(SCC(=O)Nc3ccc(OC(F)(F)F)cc3)n12	-17%	12%
Cc1ccc(C)c(N2CCN(CCCNC(=O)c3cnn(-c4ccc(F)cc4)c3C3CCN(C(=O)OC(C)(C)C)CC3)CC2)c1	-3%	?
Cc1ccc(C(C)C)c(OCC(=O)Nc2ccc(S(=O)(=O)Nc3onc(C)c3C)cc2)c1	4%	2%
Cc1ccccc1-n1c2nc(=O)[nH]c(=O)c-2cc2c(Cl)cccc21	5%	?
Cc1ccc(C(=O)c2ccc(CC(=O)O)n2C)cc1	5%	/
Cc1cc(C)c(NC(=O)Cn2c(=O)n(Cc3ccc4c(c3)OCO4)c(=O)c3ccc(C(=O)NC4CCCCC4)cc32)c(C)c1	0%	-15%
CCc1cccc(C)c1Nc1c(-c2ccc(N(C)C)cc2)nc2cnccn12	-23%	?
CCCc1cnc2c(c1SCC(=O)Nc1ccccc1F)c(=O)n(C)c(=O)n2C	-34%	?
COc1cccc(NC(=O)C2CCCN(S(=O)(=O)c3cn(C(C)C)cn3)C2)c1 (stereo unspecified)	-27%	-38%
CCC(=O)N1c2ccccc2CC1C(=O)NCc1cccc(C)c1 (stereo unspecified)	-25%	5%
CCn1cc(C(=O)NCc2ccc(C)cc2)c(=O)c2cc(S(=O)(=O)N3CCc4ccccc4C3)ccc21	-1%	0%
CCc1ccc(NC(=O)N2CCOc3ccc(Cl)cc32)cc1	33%[activator]	-62%
CCOC(=O)c1cc(-c2ccccc2)n(CCCC(=O)Nc2cccc(C)c2C)c1C	?	?
COc1ccccc1N1CCN(c2cc(C)nc3c(-c4ccc(Cl)cc4)c(C)nn23)CC1	-23%	-10%
CCc1ccc(C(=O)COC(=O)C(NC(=O)C2CCC(C)CC2)C(C)C)cc1 (stereo unspecified)	3%	-26%
COc1ccccc1CNC(=O)c1ccc2c(c1)CCN2S(=O)(=O)c1ccccc1	-22%	-8%
CCOc1ccc(OCC)c(NC(=O)c2nnn(CC(=O)Nc3ccc(C)cc3C)c2N)c1	-1%	5%
N#C/C(=C/c1ccc(Cl)cc1Cl)c1nc2ccccc2c(=O)[nH]1	-9%	-10%
O=C1Nc2ccc(Cl)cc2C(C#CC2CC2)(C(F)(F)F)O1 (stereo unspecified)	?	/

Single records (already shown).
Record of CCN(CC)CCOC(=O)c1ccc(NC(=O)CSc2cc(=O)n(CC)c3ccccc23)cc1 : HTT prom inh: 9%; PMP22 txn: ?
Record of COc1ccccc1N1CCN(c2cc(C)nc3c(-c4ccc(Cl)cc4)c(C)nn23)CC1 : HTT prom inh: -23%; PMP22 txn: -10%

Continued.
SMILES	HTT prom inh	PMP22 txn
O=C1C(CCC(O)c2ccc(F)cc2)C(c2ccc(O)cc2)N1c1ccc(F)cc1 (stereo unspecified)	-28%	/
Cc1ccc(-c2nc(C)c(CCNC(=O)c3ccccc3Br)s2)cc1	9%	?
COc1ccc(-c2cc(C(C)=O)c(C)n2CCC(=O)NCc2ccccc2OC)cc1	-30%	6%
CC1CCCCN1CCCNC(=O)CN1C(=O)CSc2ccc(S(=O)(=O)N3CCOCC3)cc21 (stereo unspecified)	-12%	-4%
Cc1ccc2c(c1)-c1onc(C(=O)N3CCN(c4cc(C)ccc4C)CC3)c1CO2	-10%	-1%
CCC(C)(C)NC(=O)C1CCN(S(=O)(=O)c2ccc3c(c2)CCCN3C(C)=O)CC1	-20%	-15%
CN(C)S(=O)(=O)c1ccc2c(c1)N(CC(=O)N1CCN(c3ccccc3F)CC1)CCS2	-17%	-25%
COc1ccc(CNC(=O)CCCn2nc(C)c3c(C)n(-c4ccc(C)cc4)nc3c2=O)cc1OC	-34%	?
CCOC(=O)c1c(S(=O)(=O)NCC(=O)N2CCN(c3cccc(Cl)c3)CC2)c(C)n(C)c1C	-11%	0%
Cc1ccc(C)c(NC(=O)CSc2nnc(-c3cc4occc4n3C)n2-c2ccccc2C)c1	?	?
Cc1nn(C)c2c1c(C(F)(F)F)cc(=O)n2C(C)C(=O)NCc1ccccc1Cl (stereo unspecified)	-12%	?
CCc1cccc(NC(=O)c2cccc3c2C(=O)N(C2CCCCC2)C3)c1	5%	?
CCCCN(CCCC)CCNC(=O)c1cc(=O)[nH]c2ccc(S(=O)(=O)N3CCCCCC3)cc12	-22%	-2%
Cc1cccc(NC(=O)c2sc3nc(-c4ccccc4)cn3c2C)c1C	7%	0%
Cc1ccc2nc(-c3cccs3)c(Nc3c(C)cccc3C)n2c1	?	?
Cc1ccc(S(=O)(=O)Nc2ccc3nc(-c4cccc(Cl)c4)oc3c2)cc1	-21%	8%
CCC(=O)N1CCCc2cc(S(=O)(=O)N3CCC(C(=O)Nc4ccccc4CC)CC3)ccc21	?	6%
O=C(NCCCN1CCN(c2ccc(F)cc2)CC1)c1sc2ncccc2c1-n1cccc1	-32%	?
CC(=O)N[C@@H](CC(C)C)C(=O)O	9%	/
CCN(CC)C(=O)C1=C(C)Nc2nc3ccccc3n2C1c1cccc(Cl)c1 (stereo unspecified)	-3%	-17%
COc1ccc(-c2cc(C(=O)Oc3cccc(C)c3C)c3ccccc3n2)cc1	-8%	-37%
CCCCn1c(=O)nc2n(-c3ccc(Br)cc3)c3ccccc3cc-2c1=O	0%	-7%
CN(C(=O)CSc1nc2ccc(NC(=O)COc3ccc(F)cc3)cc2s1)c1ccccc1	?	?
Cc1ccc(CNC(=O)CCCc2nnc3n(CC(C)C)c(=O)c4sccc4n23)cc1	-4%	-9%
Cn1c(=O)c2c(ncn2CC(=O)Nc2cccc(Cl)c2Cl)n(C)c1=O	-9%	-16%

Retrieved one by one from above, seven records:
SMILES	HTT prom inh	PMP22 txn
Cc1ccc(-c2nc(C)c(CCNC(=O)c3ccccc3Br)s2)cc1	9%	?
COc1ccc(-c2cc(C(C)=O)c(C)n2CCC(=O)NCc2ccccc2OC)cc1	-30%	6%
CCOC(=O)c1c(S(=O)(=O)NCC(=O)N2CCN(c3cccc(Cl)c3)CC2)c(C)n(C)c1C	-11%	0%
CCN(CC)C(=O)C1=C(C)Nc2nc3ccccc3n2C1c1cccc(Cl)c1 (stereo unspecified)	-3%	-17%
CCCCn1c(=O)nc2n(-c3ccc(Br)cc3)c3ccccc3cc-2c1=O	0%	-7%
COc1ccc(-c2cc(C(=O)Oc3cccc(C)c3C)c3ccccc3n2)cc1	-8%	-37%
CCCCN(CCCC)CCNC(=O)c1cc(=O)[nH]c2ccc(S(=O)(=O)N3CCCCCC3)cc12	-22%	-2%

(list continues)
SMILES	HTT prom inh	PMP22 txn
CC(C)c1ccc(NC(=O)C2CCCN(S(=O)(=O)c3ccc4[nH]c(=O)ccc4c3)C2)cc1 (stereo unspecified)	?	?
Cc1cccc(CCNC(=O)c2ccc3c(c2)N(Cc2ccccc2F)C(=O)c2ccccc2S3)c1	-13%	-15%
COc1ccc(S(=O)(=O)Nc2cc3c(C(=O)OC(C)C)c(C)oc3c3ccccc23)cc1	-41%	11µM*
CC(C)Sc1ncc(Cl)c(C(=O)Nc2ccc(S(=O)(=O)N3CCCCC3)cc2)n1	?	-7%
COc1cccc(CNC(=O)C2CCN(c3ncnc4c3nc3n4CCCCC3)CC2)c1	-9%	-17%
Cc1oc2c(C)c3oc(=O)c(CC(=O)N4CCCCC4)c(C)c3cc2c1C	-5%	-3%
Oc1ccc(Cl)cc1Cc1cc(Cl)ccc1O	?	/
Cc1cccc(NC(=O)C2CCCN(c3nc4ccccc4s3)C2)c1C (stereo unspecified)	-4%	?
CCOc1ccc(-n2nc3ccc(NC(=O)COc4ccccc4C)cc3n2)cc1	?	?
Cc1c(-c2ccccc2)n(-c2ccccc2O)c2nc3c(c(=O)n(C)c(=O)n3C)n12	?	?
CCc1cccc(NC(c2ccccc2)c2nnc(-c3ccccc3F)o2)c1 (stereo unspecified)	7%	?
COc1cccc(NC(=O)N(Cc2c[nH]c3ccccc23)C2CCCCCC2)c1	-3%	20µM*
O=S(=O)(NCCc1cn2ccsc2n1)c1ccc(Cl)cc1	-6%	-4%
CCc1ccc(CNC(=O)c2sc3ncccc3c2-n2c(C)ccc2C)cc1	?	?
CCS(=O)(=O)N1CCC2(CC1)OC(=O)C(C)=C2C(=O)NCc1cccc(Cl)c1	-19%	-21%
Cc1ccc(C(C)C)c(OCCCn2c(=O)oc3ccc(C)cc32)c1	-25%	-22%
COCCN(Cc1ccc(C)c(Br)c1)S(=O)(=O)c1ccc2[nH]c(=O)ccc2c1	-28%	-6%
Cc1ccc(CNC(=O)c2nc(SCc3cccc(C)c3)ncc2Cl)cc1	?	-19%
O=C(NCCc1csc2nc(-c3ccccc3F)nn12)c1ccccc1C(F)(F)F	-7%	?
CCOc1ccccc1CNC(=O)C1CCN(c2nn3cc(-c4ccc(F)cc4)nc3s2)CC1	17%	3%
